NPYLR7 ag – activates Aedes aegypti NPYLR7 receptor; HEK293T NPYLR7/Galpha15, GCaMP6s calcium fluorescence; activation, % at 10 µM; 270,000 tested, 0.15% active; in the data active = activation above about 40%;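 note: 0% = vehicle and 100% = reference agonist at the receptor; some compounds past the cut are filed as inactive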
NPYLR7 ag max-min – also measured in NPYLR7 ag; calls as there; activation, %; measured here: Max-Min RFU normalised activation; some inactives read as strong as hits;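 span of the calcium signal over five minutes; 0% = vehicle and 100% = native peptide agonist; compound fluorescence can raise it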
Numbers without * were called inactive; & = joins results of further samples.

SMILES,NPYLR7 ag,NPYLR7 ag max-min
CC1CCN(S(=O)(=O)CC(=O)Nc2ccc(OCc3nccn3C)cc2)CC1,-4,-5
CSCCCNC(=S)Nc1ccc(N2CCOCC2)cc1N1CCOCC1,-6,-8
CCc1cccc(NC(=O)CCC(=O)N(C)C(C)c2nccs2)c1 (stereo unspecified),7,-1
CCc1nc2sccc2c(=O)n1NC(=O)c1cccc(C)c1,0,-1
CCN(CC1CCCO1)C(=O)c1cc(Cn2c(C)nc3ccccc32)[nH]n1 (stereo unspecified),16,9
Cc1cc(C)nc(CN(C)c2nccc(-c3ccc(C)nc3C)n2)c1,-11,-14
COc1cccc(-n2cc(CN(C)Cc3nc(-c4ccc5c(c4)OCO5)no3)cn2)c1,-6,-8
COc1cccc(C(=O)NN2CC(=O)C(c3nc4ccccc4n3C)C2=N)c1 (stereo unspecified),23,12
CCc1cnc(N2CCCC(C(=O)c3cc(F)ccc3F)C2)nc1 (stereo unspecified),24,18
OCC1(O)CCCN(Cc2nnc(-c3ccccc3)o2)CC1 (stereo unspecified),2,-8
CC(C)OCCCNC(=O)NC(C)c1ccc2ccccc2c1 (stereo unspecified),-5,-5
Cc1ccccc1OCc1nc(C(=O)NCCN(C)C)cs1,5,-7
c1ccc(-c2noc(CN3CCN(C4CCCCC4)CC3)n2)cc1,15,10
Fc1ccc(CSc2ncnc3c2nnn3Cc2ccccc2F)cc1,12,12
Cc1nsc(NC(=O)N2CCCC(c3nc(C(C)C)no3)C2)n1 (stereo unspecified),4,4
Cc1nn(CC(=O)NC(C)C(C)C)c(C)c1S(=O)(=O)N(C)C (stereo unspecified),6,4
O=C(O)C1COC2(CCN(C(=O)c3ccccc3Cl)CC2)N1C(=O)c1ccc(F)cc1 (stereo unspecified),12,12
Cc1nnc(SCC(=O)NCC(C)Oc2cccnc2)s1 (stereo unspecified),0,-4
CC(=O)C1=C(c2ccc([N+](=O)[O-])cc2)N(C(C)=O)n2c(C)nnc2S1,9,4
CC(C)C[C@H]1Cc2nc(N)ncc2C(=O)N1,-10,-11
Cc1cccc(NC(=O)CC(=O)NCc2cc(C(C)C)on2)c1C,2,-4
CCn1c(C2CCCN(Cc3ccc(-c4ccn[nH]4)s3)C2)nn(C)c1=O (stereo unspecified),-2,-2
O=c1c(Cl)c(Cl)cnn1CN(Cc1ccc2ccccc2c1)C1CC1,-1,-1
O=C(NCc1ccc2c(c1)OCO2)c1cc(-c2ccccc2F)nc2cc(-c3ccccc3)nn12,7,6
CC1Cc2ccccc2N1C(=O)CSc1nnc(-c2ccco2)n1CCC(N)=O (stereo unspecified),-1,10

The last 7 records of the part above open the next one:
SMILES,NPYLR7 ag,NPYLR7 ag max-min
CC(=O)C1=C(c2ccc([N+](=O)[O-])cc2)N(C(C)=O)n2c(C)nnc2S1,9,4
CC(C)C[C@H]1Cc2nc(N)ncc2C(=O)N1,-10,-11
Cc1cccc(NC(=O)CC(=O)NCc2cc(C(C)C)on2)c1C,2,-4
CCn1c(C2CCCN(Cc3ccc(-c4ccn[nH]4)s3)C2)nn(C)c1=O (stereo unspecified),-2,-2
O=c1c(Cl)c(Cl)cnn1CN(Cc1ccc2ccccc2c1)C1CC1,-1,-1
O=C(NCc1ccc2c(c1)OCO2)c1cc(-c2ccccc2F)nc2cc(-c3ccccc3)nn12,7,6
CC1Cc2ccccc2N1C(=O)CSc1nnc(-c2ccco2)n1CCC(N)=O (stereo unspecified),-1,10
Cc1cc(Br)cc2c(N=NC(=O)c3cccc(O)c3)c(O)[nH]c12,5,0
CN(Cc1nccn1C)C(=O)CC(c1ccccc1)c1ccco1 (stereo unspecified),2,0
CC(C)N(Cc1nccn1C)C(=O)c1cn(CC2CCCCC2)nn1,21,3
O=C(N1CCOC(c2ccccc2)C1)C1(c2ccccc2)CC1 (stereo unspecified),19,29
CC(C)C1CN(C(=O)CCCc2cn[nH]c2)CCCN1Cc1ccc(F)cc1 (stereo unspecified),4,-1
Cc1ccc(C(CC(=O)N2CCc3ccccc3C2)c2cn(C)c3ccccc23)cc1 (stereo unspecified),16,27
COc1ccc(C(=O)N2CCCC(O)C2)c2ccccc12 (stereo unspecified),-1,-2
CCOC(=O)C1CCN(C2CCN(c3cccc(NS(=O)(=O)c4ccc(F)cc4)c3)CC2)CC1,-2,-5
O=C(c1cc(-n2cccn2)ccc1Cl)N1CC(c2ccncc2)C1,0,-2
Cc1nn(-c2ccccc2)c(C)c1CN(C)C(=O)COc1cc(Cl)ccc1Cl,-2,21
CCOC(=O)Cc1c(C)nc2ncnn2c1N1CCN(S(=O)(=O)c2ccc(C)c(Cl)c2)CC1,27,19
COCC1(C(=O)NCCc2cnc3ccccn23)CCC1,1,-1
COc1c(F)cccc1C(=O)N1C[C@H](O)[C@@H](N2CCOCC2)C1,6,4
O=S(=O)(NCCc1csc2nc(-c3cccs3)nn12)c1ccccc1,0,-2
Cc1ccc(-c2cn(S(=O)(=O)c3cccc4nsnc34)nc2N)cc1,-6,-10
CCc1oc2cc(OCC(=O)O)ccc2c(=O)c1-c1ccc2c(c1)OCCO2,-7,-15
Cc1ccccc1-c1ccc(-n2cncc2C(=O)NCc2cccc(I)c2)cc1,4,0
COCCc1nc2ccc(C(=O)N3CCN(Cc4ccc(F)cc4)C(=O)C3)cc2o1,-2,-3
Cn1cnnc1Sc1ccc(NC(=O)C2CC2)cc1Cl,6,2
CC(C)(C)c1ccc(C(=O)N2CCC2(C)C(=O)NC2Cc3ccccc3C2)cc1 (stereo unspecified),-3,-4
COc1ccc(NC(=O)c2c(C)cc(C)[nH]c2=O)c(Cl)c1,1,-9
Cc1cc2ncn(S(=O)(=O)N(C)C)c2cc1C,10,2
CC(C)c1cc(C(=O)N2CCn3cccc3C2c2ccccn2)n(C)n1 (stereo unspecified),3,1
COc1ccc(C)c2sc(N(Cc3ccccn3)C(=O)c3ccno3)nc12,-3,-9
CC(CCc1ccc(OC(C)C)cc1)NC(=O)N(C)CC(=O)N1CCCC1 (stereo unspecified),2,2

Compounds above that contain a furan ring, fused or not (two):
SMILES,NPYLR7 ag,NPYLR7 ag max-min
CC1Cc2ccccc2N1C(=O)CSc1nnc(-c2ccco2)n1CCC(N)=O (stereo unspecified),-1,10
CN(Cc1nccn1C)C(=O)CC(c1ccccc1)c1ccco1 (stereo unspecified),2,0

More entries.
SMILES,NPYLR7 ag,NPYLR7 ag max-min
COCCNC(=O)Cn1cnc2c(nnn2C)c1=O,0,12
CCOC(=O)C1=C(C)NC2=C(C(=O)CC(c3ccccc3)C2)C1c1cccc2ccccc12 (stereo unspecified),17,18
Cc1nc2ccccn2c1CN(C)Cc1cnn(-c2ccccc2)c1,-1,-8
COC(=O)N1CC(O)C(NCCCc2ccccc2)CN1C(=O)OC (stereo unspecified),-3,-6
CCOC(=O)C1(CC2CC2)CCN(Cc2ccccc2C(F)(F)F)CC1,16,5
O=C1C[C@H]2CC[C@@H](CN1)N2C(=O)COc1ccc2c(c1)OCO2,6,2
Cc1ncoc1C(=O)N1CCc2[nH]nc(C(c3ccccc3)c3ccccc3)c2C1,5,0
CC1(C(=O)Nc2ccccc2F)CCN1Cc1ccsc1 (stereo unspecified),2,-1
CC(=O)Cn1c(-c2nnco2)cc2ccccc21,-1,-2
CC1(C(=O)NS(=O)(=O)c2ccccc2OC(F)(F)F)CCN1C(=O)Cc1ccccc1 (stereo unspecified),0,-2
CCc1nnc(-c2cc3ccccc3n2CC(=O)NCCOC)o1,13,6
OC(CN1CCOCC1)CN(Cc1cccc(F)c1)CC1CC(c2ccc(Cl)cc2)=NO1 (stereo unspecified),-3,4
Cc1cccc(C)c1N1C(=O)c2ncccc2C1CC(=O)N(C)Cc1cccc(C(=O)O)c1 (stereo unspecified),3,5
O=S(=O)(c1ccc(C(F)(F)F)cc1)N1CCN(CCCOC(c2ccc(Cl)cc2)c2ccc(Cl)cc2)CC1,3,2
CC(C)c1[nH]n(-c2ccccc2)c(=O)c1-c1ccc(N)cc1,23,25
COc1cc(CN2CCC(N(c3ccc(C)cc3)S(=O)(=O)c3ccc(F)cc3)CC2)cc(OC)c1,6,4
Fc1cccc(Nc2nc3nonc3nc2Nc2cccc(F)c2)c1,13,12
CCOc1ccccc1CN1CCN(Cc2nc3ccccc3[nH]2)CC1CCO (stereo unspecified),16,12
Cc1ccsc1CN(C(=O)c1[nH]c2ccccc2c1Cl)C(C)C,9,8
CC(C)c1ccc(NC(=O)C(=O)NCCc2ccc(N(C)C)cc2)cc1,-10,-11
O=C(N[C@@H]1CCCCC1NC(=O)C1CCCN(C(=O)c2ccc(Cl)cc2)C1)c1ccc(F)cc1 (stereo partly specified),13,19
Cc1cccc(NC(=O)N2CCC(CCc3ccc(C(F)(F)F)cc3)CC2)c1,4,4
CCOC(=O)C(NC(=O)CC)(Nc1ccccc1Cl)C(F)(F)F (stereo unspecified),-9,-11
Cc1ccc(-n2c(C(C)N(Cc3ccccc3)C(=O)c3cccc(F)c3)nc3ccccc3c2=O)cc1C (stereo unspecified),4,-1
O=C(NCc1cccnc1)c1coc(CN(Cc2cccc(C(F)(F)F)c2)Cc2ccc(F)cc2F)n1,15,11

3 structures already listed, ordered by molecular weight, lowest first.
SMILES,NPYLR7 ag,NPYLR7 ag max-min
COCCNC(=O)Cn1cnc2c(nnn2C)c1=O,0,12
O=C1C[C@H]2CC[C@@H](CN1)N2C(=O)COc1ccc2c(c1)OCO2,6,2
Cc1ncoc1C(=O)N1CCc2[nH]nc(C(c3ccccc3)c3ccccc3)c2C1,5,0

Next section:
SMILES,NPYLR7 ag,NPYLR7 ag max-min
Nc1nc2c(ncn2CCC(CO)CO)c(=O)[nH]1,-8&-6&3,-11&-4&-3
CC(C)(CC(=O)O)CC(=O)N1CCC2(CC1)OCc1cc(-c3ccc(C(F)(F)F)cc3)ccc1O2,1,10
CN(c1ncccc1CNc1cncc(C(N)=O)n1)C1CCCCC1,-1,0
Cc1nnsc1C(=O)N1CCC(C(=O)Nc2cccc(-c3cc4ccccc4[nH]3)c2)CC1,19,7
CCOCCCNC(=O)c1c(O)nc2scc(C)n2c1=O,-1,16
CCc1nc(CNCc2ccc(N3CCc4ccccc4C3)nc2)cs1,5,2
CC/C=C/CC(=O)Nc1cccc(NC(=O)Cc2ccccc2)c1,18,9
CC1(C(=O)Nc2ccccc2)CCN1C(=O)Cc1cc(F)ccc1F (stereo unspecified),4,3
O=C1CN(S(=O)(=O)c2ccccc2)CC(O)CN1CCCc1ccccc1 (stereo unspecified),-1,8
O=C(Nc1ccc(F)c(-n2nnnc2C2CC2)c1)C1CCCO1 (stereo unspecified),4,2
O=C(NCCOc1ccc(Cl)cc1)N1CCC2(CCOCC2)C1,2,9
COC(=O)c1ccc(N(C(=O)Cn2cccn2)C(C)C)c(C)c1,9,7
Cn1c(O)c(C=C2C=Nc3ccccc32)sc1=S,-2,-9
O=C(/C=C/c1cccc(C(F)(F)F)c1)Nc1ccc(-c2onc3c2CCCC3)cc1,16,22
O=C(NCC1CCN(C2CCCC2)CC1)Nc1ccccc1Cl,-2,-4
O=C(O)c1cc2n(n1)CCN(CC1CC1)C2=O,-7,1
CN(CCc1ccccn1)c1ncccc1CNC(=O)NC1CCCCC1,-3,-7
O=C(OCc1cc(-c2cc3ccccc3o2)on1)c1cc2ccccc2o1,-4,-3
Cc1ccc(N=Cc2cccc([N+](=O)[O-])c2)c(C)c1,-2,-5
Cc1ccc(NC(=O)C(C2CCCC2)N2CCN(C(=O)Nc3ccc(F)cc3)CC2)cc1 (stereo unspecified),13,14
O=C(NCCc1ccccn1)c1ccc(OC2CCN(C(=O)C3CC3)CC2)cc1,3,4
CNC(=O)c1ccc(/C=C/C(=O)Nc2nc3c(s2)CCCC3)cc1,-1,-2
CC(C)(C)c1ncc(NC(=O)C2(c3cccc(F)c3)CCC2)cn1,8,4
O=C1NCCN1CCNc1nccc(CCC(F)(F)F)n1,17,7
Cc1nc(C)c(Cc2ccccc2F)c(N2CCN(C(=O)COc3ccccc3)CC2)n1,31,26
CN(C)c1cccc(C(NC(=O)c2ccc3ccccc3c2)c2ccc(S(C)(=O)=O)cc2)c1 (stereo unspecified),20,12
CN1c2ccccc2C(=O)NC12CCSCC2,3,2
CCOc1ccc(OCC)c(-c2c(=O)n(OCc3ccccc3C(=O)OC)c3ccccc3[n+]2[O-])c1,27,6
C=CC[C@@H]1CC=C[C@@H](c2ccccc2)N1Cc1ccc(CO)o1,-2,-12
CCOC(=O)c1c(NC(=O)c2cccc(Cl)c2)sc(C(=O)Nc2ccccc2C(F)(F)F)c1C,-5,-4
CC(=O)ON1C(c2ccc(F)cc2)N=C(c2ccccc2)C1(C)C (stereo unspecified),-15,-19
CCCc1cc(N2CCCCC2)n2nc(C)c(-c3ccccc3)c2n1,2,11
O=C(c1ccoc1)N1CCc2ccc(NC(=O)C3(c4ccccc4)CC3)cc2C1,1&2,2&-1
Cc1noc2nc(-c3ccccc3)cc(C(=O)NC(C)c3ccc(F)cc3)c12 (stereo unspecified),-6,-8
COc1ccc(-c2ccc(CNS(N)(=O)=O)cc2)cc1,9,4

A few values from the entries so far:
Cc1ccc(NC(=O)C(C2CCCC2)N2CCN(C(=O)Nc3ccc(F)cc3)CC2)cc1 (stereo unspecified) in NPYLR7 ag reads 13
Cc1ccc(C(CC(=O)N2CCc3ccccc3C2)c2cn(C)c3ccccc23)cc1 (stereo unspecified) in NPYLR7 ag reads 16
Cn1cnnc1Sc1ccc(NC(=O)C2CC2)cc1Cl in NPYLR7 ag reads 6
Cc1cc(C)nc(CN(C)c2nccc(-c3ccc(C)nc3C)n2)c1 in NPYLR7 ag reads -11
Cc1noc2nc(-c3ccccc3)cc(C(=O)NC(C)c3ccc(F)cc3)c12 (stereo unspecified) in NPYLR7 ag max-min reads -8

This is a subset; the hit share may differ from the screen's.
